Compound activity from PubChem.
HPGD inh: HPGD (human) dehydrogenase inhibition; P15428; purified HPGD, NADH fluorescence kinetic, PGE2 substrate; Potency, µM, for inactives: at the top dose activity change, negative = inhibition, most hits filed as inhibitors; 150,000 tested, 4.3% active; active = well fitted inhibition curve with a large enough effect (not every such curve was filed as active); inconclusive = small, poorly fitted or top-dose-only effect, or another doubt; inactive = no such curve, though single readings can be large or run the other way;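 further: top concentration of the series not given in the record; plate controls included wells without enzyme; inactives centre near -10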
Target sequence (P15428 whole entry, looked up): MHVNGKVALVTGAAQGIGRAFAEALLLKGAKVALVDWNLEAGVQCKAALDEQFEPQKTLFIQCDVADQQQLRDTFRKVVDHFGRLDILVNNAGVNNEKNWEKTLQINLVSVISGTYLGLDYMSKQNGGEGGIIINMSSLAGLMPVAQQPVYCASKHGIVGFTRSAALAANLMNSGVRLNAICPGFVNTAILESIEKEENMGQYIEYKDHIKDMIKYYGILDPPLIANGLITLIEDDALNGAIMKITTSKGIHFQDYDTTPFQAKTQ
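NADH formation kinetics: reaction with 30 uM PGE2 and 1 mM NAD+ (final), 20 nM enzyme, Tris-HCl pH 8 with Tween 20, after 15 min compound preincubation at room temperature. Fluorescence change, last versus first of five reads.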
Starred values were filed as active, the others as inactive; u = inconclusive; & = joins results of further samples. On the % scale 0 is the no-effect control and ±100 the full control effect; potency means the concentration at half of the fitted maximal effect. This is a subset; count on the stated rates, not on these rows.

SMILES	HPGD inh
CNc1nc2[nH]c(=O)c3c(c2s1)OC(N)=C(C#N)C3c1ccccc1 (centres undefined)	-13%
Cc1ccc(Cl)cc1N1CCN(Cc2nnnn2Cc2ccco2)CC1	-7%
CC(=O)c1c(C)cc(C)c(CSc2nnc(-c3ccco3)o2)c1C	-14%
Cc1ccc2c(c1)N(CCC(=O)NCc1ccco1)C(=O)CO2	-20%
O=C(CN1N=C(c2ccccc2)CCC1=O)NCCN1CCc2ccccc2C1	-8%
O=C(CCc1nc(-c2ccccc2F)no1)NCCN1CCOCC1	-6%
Oc1ccc(Nc2nc3ccccc3nc2Nc2ccc(O)cc2)cc1	-19%
Cc1cc(C)n(Cc2ccc(C(=O)O)o2)n1	-5%
Cc1cc(C)n(Cc2ccc(C(=O)NCc3ccco3)o2)n1	-29%
CCc1ccc(/C=C2\Oc3cc(OS(C)(=O)=O)ccc3C2=O)cc1	-13%
C=CCc1c(C)nc(SC(C)C)[nH]c1=O	-20%
N[C@@H](Cc1ncccn1)C(=O)O	-4%
COCCNc1cc(C)nc2c3c(C)cc(C)nc3nn12	u
Clc1ccc(CON/C=N/c2ncnc3sccc23)c(Cl)c1	-12%
N=c1n(CC(=O)c2ccc([N+](=O)[O-])cc2)c2ccccc2n1Cc1ccccc1	-5%
CCc1cc(=O)oc2cc3oc(C)c(C)c3cc12	-16%
Cc1nc2ccccn2c1C(=O)N/N=C/c1ccc(CNC(=O)C(=O)Nc2ccccc2)o1	-6%
COc1ccc(-c2cc(=O)c3c(O)c(OC)c(O[C@@H]4OC(COC5OC(C)C(O)C(O)[C@@H]5O)C(O)C(O)C4O)cc3o2)cc1 (some centres undefined)	-19%
FC(F)(F)c1ccc(CSc2nccn2-c2ccccc2)cc1	-2%
COC(=O)c1ccccc1NC(=O)CSc1nnc(C(CO)NC(=O)c2ccccc2Cl)n1C (centres undefined)	-10%
CN1CCN(C=NC2=NN(c3cccc(C(F)(F)F)c3)CC2)CC1	-6%
O=C(CSc1ncccn1)N1CCN(Cc2ccccc2)CC1	-4%
O=C(CN1CCN(Cc2ccccc2)CC1)NC(=O)NCc1ccco1	0%
C=CCNc1nc(NCCN2CCOCC2)nc(N2CCOCC2)n1	-2%
Cc1nn(CC(=O)Nc2ccncc2)c(C)c1[N+](=O)[O-]	-2%
CCc1ccc2[nH]c(=O)c(CN(Cc3ccc4c(c3)OCO4)Cc3nnnn3C3CCCC3)cc2c1	-29%
O=c1ccn([C@@H]2O[C@H](COP(=O)(O)OP(=O)(O)O)[C@@H](O)[C@H]2O)c(=O)[nH]1	-18%
O=C(O)CCN1/C(=C/C=Nc2ccccc2)Oc2ccccc21	-15%
O=C(Nc1ccc(F)cc1)c1nsc(Cl)c1Cl	-10%
COc1ccc(C2COC(=O)C2=N)c(NC(=O)c2ccc(Cl)cc2)c1 (centres undefined)	-2%

Another view of part of the listing above.
molecule | HPGD inh
N=c1n(CC(=O)c2ccc([N+](=O)[O-])cc2)c2ccccc2n1Cc1ccccc1 | -5%
CCc1cc(=O)oc2cc3oc(C)c(C)c3cc12 | -16%
Cc1nc2ccccn2c1C(=O)N/N=C/c1ccc(CNC(=O)C(=O)Nc2ccccc2)o1 | -6%
COc1ccc(-c2cc(=O)c3c(O)c(OC)c(O[C@@H]4OC(COC5OC(C)C(O)C(O)[C@@H]5O)C(O)C(O)C4O)cc3o2)cc1 (some centres undefined) | -19%
FC(F)(F)c1ccc(CSc2nccn2-c2ccccc2)cc1 | -2%
COC(=O)c1ccccc1NC(=O)CSc1nnc(C(CO)NC(=O)c2ccccc2Cl)n1C (centres undefined) | -10%
CN1CCN(C=NC2=NN(c3cccc(C(F)(F)F)c3)CC2)CC1 | -6%
O=C(CSc1ncccn1)N1CCN(Cc2ccccc2)CC1 | -4%
O=C(CN1CCN(Cc2ccccc2)CC1)NC(=O)NCc1ccco1 | 0%
C=CCNc1nc(NCCN2CCOCC2)nc(N2CCOCC2)n1 | -2%
Cc1nn(CC(=O)Nc2ccncc2)c(C)c1[N+](=O)[O-] | -2%
CCc1ccc2[nH]c(=O)c(CN(Cc3ccc4c(c3)OCO4)Cc3nnnn3C3CCCC3)cc2c1 | -29%
O=c1ccn([C@@H]2O[C@H](COP(=O)(O)OP(=O)(O)O)[C@@H](O)[C@H]2O)c(=O)[nH]1 | -18%
O=C(O)CCN1/C(=C/C=Nc2ccccc2)Oc2ccccc21 | -15%
O=C(Nc1ccc(F)cc1)c1nsc(Cl)c1Cl | -10%
COc1ccc(C2COC(=O)C2=N)c(NC(=O)c2ccc(Cl)cc2)c1 (centres undefined) | -2%

Later entries
SMILES	HPGD inh
COC(=O)c1ccc(NC(=O)CSc2nnnn2C2CCCCC2)cc1	-20%
Cc1ccccc1Oc1nc2c(C)cccn2c(=O)c1/C=C(\C#N)C(=O)Nc1c(C)n(C)n(-c2ccccc2)c1=O	-10%
CCCC(=O)Nc1ccc(Oc2ccc(NC(=O)CCC)cc2)cc1	-9%
CC(NC(=O)C1CCC1)c1ccc(Br)cc1 (centres undefined)	-28%
CCCC(=O)Nc1ccc2c(c1)nc(CN1CCCCC1)n2C	-3%
Cc1ccccc1OCC(=O)NCC(=O)N/N=C/c1ccc(Br)o1	0%
O=C(CN(Cc1ccccc1)S(=O)(=O)c1ccc2c(c1)OCCO2)Nc1ccc2c(c1)OCCO2	-19%
CCSc1nnc(NC(=O)C2CCCCC2C(=O)OCC(F)(F)C(F)F)s1 (centres undefined)	-18%
CCOC(=O)N=S(N)(=O)c1ccccc1 (centres undefined)	-3%
Cn1c(NN)nc2sc3c(c2c1=O)CC(C)(C)OC3	u
CCSc1nc2ccccc2n1C(=O)c1ccc(S(=O)(=O)N2CCCCCC2)cc1	-27%
COc1ccc(-n2c(=S)[nH]c3cc(C(=O)Nc4cccc(C)c4)ccc3c2=O)cc1	-17%
c1csc(-c2nn3c(C4COc5ccccc5O4)nnc3s2)c1 (centres undefined)	8.9µM*
CC1CCN(S(=O)(=O)c2ccc(NC(=O)CN3CCN(c4ccccc4)CC3)cc2)CC1	-8%
O=C(NC(c1ccc(Cl)cc1)c1c(O)ccc2ccccc12)c1ccccc1 (centres undefined)	-4%
CCCC(=O)NC(Nc1ccc(S(=O)(=O)Nc2ncccn2)cc1)(C(=O)OCC)C(F)(F)F (centres undefined)	-15%
CCc1nc(N2CCCCC2C)c2oc3ccccc3c2n1 (centres undefined)	-15%
COc1ccc(C(=O)c2sc3nc(C)cc(-c4cccs4)c3c2N)cc1	-21%
CCOCCOCCC(C(=O)OCC)P(=O)(c1ccccc1)c1ccccc1 (centres undefined)	-7%
Cc1ccc(C)c(NC(=O)c2cc(-c3ccccc3)nn2-c2ccccc2)c1	-13%
Cc1c(C(=O)Nc2ccc(F)cc2)oc2ccc(S(=O)(=O)N3CC(C)CC(C)C3)cc12 (centres undefined)	u
COc1cccc(-c2cc(C(=O)NCCN3CCOCC3)no2)c1	-4%
CC1Cc2ccccc2N1C(=O)C1CCN(S(=O)(=O)Cc2ccccc2)CC1 (centres undefined)	-2%
CCc1nc(SCC(=O)NCCc2ccccc2)n[nH]1	-15%
CCOC(=O)CSc1nc2sc(C(=O)O)c(C)c2c(=O)[nH]1	-27%
CCc1c(C)[nH]c2nc3ccccc3n2c1=O	u
COc1ccc(Br)cc1C(=O)Nc1nnn(C)n1	-6%
O=C(O)CC(CP(=O)(c1ccccc1)c1ccccc1)C(=O)O (centres undefined)	-2%
O=C(CCC(=O)Nc1ccccc1Cl)N/N=C/c1c[nH]c2ccccc12	-17%
Cc1c(NC(=O)c2cc(=O)[nH]c3ccccc23)c(=O)n(-c2ccccc2)n1C	-10%
COc1ccc(N)c2c1C(=O)c1ccccc1C2=O	-2%
CC(C)(C)SCCNC(=O)c1cccc([N+](=O)[O-])c1	u
c1ccc(Cn2nnc3c(NCC4CCCO4)ncnc32)cc1 (centres undefined)	-19%
CCc1ccccc1N(CC(=O)N1CCN(c2ccccc2)CC1)S(C)(=O)=O	-8%
O=C(CSc1nccn1Cc1ccccc1)Nc1nccs1	2%
COc1ccc(CCn2nnnc2C(C(C)C)N2CCC(C(N)=O)CC2)cc1OC (centres undefined)	-2%
Nn1c(SCc2cccc(C(F)(F)F)c2)nnc1-c1ccco1	-18%
Cc1[nH]c2ccccc2c1/C=C(\C#N)S(=O)(=O)c1ccccc1	u
CN(C)CC#CCCCCCCC#CCN(C)C	-5%
CC(=O)Nc1cc(-c2ccc(Cl)cc2)nn1-c1ccccc1	-12%
Cn1c(-c2ccccc2)cnc1SCC(=O)N1CCCCC1	-15%
Cc1ccc2cc(C)c(Sc3nnnn3-c3ccccc3)nc2c1	-12%
CC1=NN(/C(=N\c2nnc(C)s2)Nc2ccc(C)cc2)[C@H](c2ccc(C)cc2)S1	-9%
COC(=O)C1(S(=O)(=O)c2cc(Br)cc3c2N(C(C)=O)CC3)CC1	-5%
CCOc1ccccc1-n1c(CN2CCN(C(=O)c3ccco3)CC2)nc2ccccc2c1=O	2%
c1ccc2c(-n3ccnc3)nc(-c3ccoc3)nc2c1	-18%
COc1ccc(C(=O)Cc2ccc3c(c2)OCO3)c(O)c1	u
O=C(CSc1nnnn1C1CCCC1)c1ccc2c(c1)OCCO2	-19%
Cc1cccc(NS(=O)(=O)c2cc(C(=O)N3CCN(C)CC3)ccc2C)c1	-4%
CCN(CC)c1ccc(S(=O)(=O)N2CCOCC2)cc1NC(=O)CSc1cccc[n+]1[O-]	-16%
CCCCc1ccc(-c2nc(N)n[nH]2)cc1	-13%
CC(C)(C)CC(=O)OCC(=O)Nc1cc(C(C)(C)C)nn1-c1ccccc1	-15%
COC(=O)c1ccccc1NC(=O)N[C@@H](C)C(=O)OC	u
CCCc1c(C(=O)OCC)[nH]c2c1C(=O)CCC2	-8%
CCc1ccc(N2C(=O)CN(Cc3ccc(OC)c(OC)c3)C2=S)cc1	-10%
CSCCC(NS(=O)(=O)c1cccs1)C(=O)NCc1cccs1 (centres undefined)	-7%
Cn1nnc2cc(NC(=O)N3CC4(C)CC3CC(C)(C)C4)ccc21 (centres undefined)	-22%
Cc1ccc(NC(=O)CSc2nnc([C@@H]3CCCN3C(=O)OC(C)(C)C)o2)c(C)c1	-14%
Cc1ccc(N2CCN(C(=O)c3ccccc3NC(=O)C3CCCCC3C(=O)O)CC2)cc1 (centres undefined)	0%
Cc1cccc(C(=O)N/N=C/c2ccccn2)c1	0%
Continued.
SMILES	HPGD inh
O=C(NCc1cccs1)C1CCCN(S(=O)(=O)c2cccc3cccnc23)C1 (centres undefined)	-4%
Cc1ccccc1-n1cnnc1SCC(=O)N1CCN(c2ccccc2)CC1	2%
CC(=O)OCC(=O)[C@@]1(O)CC[C@H]2[C@@H]3CCC4=CC(=O)C=C[C@]4(C)[C@H]3[C@@H](O)C[C@@]21C	-6%
c1ccc(-c2nc(-c3cccnc3)n[nH]2)cc1	-13%
Cc1ccc(C(=O)N/C(=C/c2cccc([N+](=O)[O-])c2)C(=O)NC(C)C)cc1	-8%
CCOC(=O)c1cn(CC(=O)Nc2ccccc2C(=O)OCC)nn1	-12%
COc1ccc(S(=O)(=O)N2CCC(O)(c3ccc4c(c3)OCO4)CC2)cc1	-1%
CCOC(=O)CSc1nc2ccccc2c(=O)n1CC1CCCC1	-9%
Cc1cc(C)c(S(=O)(=O)N2CCN(CCN3C(=O)c4cccc5cccc(c45)C3=O)CC2)cc1[N+](=O)[O-]	-11%
CC(C)NS(=O)(=O)c1ccc(OCC(=O)NCc2ccc3c(c2)OCO3)c(Cl)c1	-5%
O=C(O)CSc1nc2ccccc2[nH]1	-1%&-10%
O=C(N=NC(=O)c1ccc2c(O)n(C3CCCCC3)c(O)c2c1)c1cccnc1	-17%
COc1ccc(N2CCN(C(=O)c3cn(C)c(=O)c4c3c3ccccc3n4C)CC2)cc1	-12%
O=C(O)c1cc(NS(=O)(=O)c2ccc(N3CCCCC3)c([N+](=O)[O-])c2)cc(C(=O)O)c1	-11%
O=S(=O)(/C=C/c1ccccc1)n1cnc2ccccc21	2%
O=C1N(CCCCN2C(=O)C3(OCCO3)c3ccccc32)c2ccccc2C12OCCO2	-2%
COc1ccc(NC(=S)Nc2ccc3nccnc3c2)cc1	-14%
COc1ccc(C(=O)COc2nc(C)cc(C)c2C#N)cc1	-4%
NC(=O)C1CCN(CC(=O)Nc2cccc(C(=O)Nc3cccc(C(F)(F)F)c3)c2)CC1	-15%
C=CCC(C)(O)c1cccs1 (centres undefined)	-7%
c1ccc(CN2CCN(c3nc(-c4ccccn4)nc4ccccc34)CC2)cc1	-13%
COc1ccc(-c2nsc3c(N4CCN(S(=O)(=O)c5ccccc5F)CC4)ncnc23)cc1	u
COC(=O)c1nnn(-c2nonc2N)c1CSc1nc2ccccc2s1	-10%
CCOc1cc(/C=C2/C(=O)N(c3ccccc3)N=C2C)ccc1OC(=O)c1ccco1	8.9µM*
CC(=O)c1ccc(N2CCN(C(=O)COc3ccc(F)cc3)CC2)c(F)c1	-11%
CC1CCCN(Cc2nc3c(c(=O)n(C)c(=O)n3C)n2CC(N)=O)C1 (centres undefined)	-5%
CCCCN(C)c1nc(-c2ccco2)c2c(c1C#N)CC(C)(C)OC2	u
CCOc1cc(/C=N/NC(=O)Cn2nc([N+](=O)[O-])cc2C)cc(Br)c1OCc1ccccc1F	-19%
O=C(COc1ccc(Cl)cc1)N(Cc1ccccc1)c1nc(-c2ccccc2)cs1	-3%
O=C(Cc1ccccc1)N/N=C/c1cccs1	-12%
O=C(Nc1ccc(O)cc1)C1CCCO1 (centres undefined)	-3%
COc1ccccc1CNC(=O)C(CCSC)NC(=O)C1CCC(C)CC1 (centres undefined)	-3%
O=C(CSc1nnc(-c2ccc(Cl)cc2)n1Cc1ccco1)c1cccs1	-8%
Cn1c(=O)c2[nH]c(-c3ccc(S(=O)(=O)O)cc3)nc2n(C)c1=O	u
O=S(=O)(c1ccc2nc(-c3ccccc3)[nH]c2c1)N1CCN(c2cccc(Cl)c2)CC1	-5%
COc1cc(OC)c2c(c1)C(=O)c1cc(OC)cc(OC)c1C2=O	-5%
Cc1nc2scc(-c3cccs3)c2c(=O)n1-n1cccc1	-10%
